# Bioassay records deposited in PubChem BioAssay by Broad Institute.
# BJeLR viab HTS = compounds reducing viability of BJeLR cells; BJeLR fibroblasts viability, CellTiterGlo ATP luminescence, 48 h; HRASV12, hTERT and SV40 LT/ST transformed; viability loss activity score, % (concentration not given with the values); 30,000 compounds, 0.64% hits; AID 2275; in the data active = viability loss activity score above about 50%; about a fifth of its hits are not listed in these tables;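 also: higher score means fewer live cells and less ATP luminescence; stock transfer was 50 or 100 nL into about 30 µL; 0% = vehicle wells and 100% = a reference killing control; one replicate is shown; the record names a cut of 85%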
# A1 inh = blocks A1 activity | MEF A1-2A-BIM cells, caspase-Glo luminescence, 3 h; percent of clofoctol signal, DMSO as zero | caspase activation, % (no concentration beside the values) | AID 2241 | 21,000 compounds, 0.51% hits;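 active = most replicate scores above 10, or exactly half above 10 with mean activity above 10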;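 also: effector caspase 3 and 7 activity cleaving a DEVD luciferin substrate; 50 nL library stock added to about 30 µL; numbers are from one replicate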
# * marks the source's active call; other numbers are inactive results; nt = not tested or not shown. These rows are one share of the data; the hit share may differ from the screen's.
SMILES,BJeLR viab HTS,A1 inh
O=C(NC(=O)c1cn2cc(C(F)(F)F)cc(Cl)c2n1)Nc1ccc(Cl)cc1,1.8,0.0
CCOC(Cn1c(SCC#N)nc2ccccc2c1=O)OCC,0.6,-0.8
C[C@@H]1CN([C@H](C)CO)C(=O)c2cc(NC(=O)Cc3ccccc3)ccc2O[C@@H]1CN(C)C(=O)Nc1ccccc1,-5.7,0.2
COc1ccc(S(=O)(=O)N(C)C[C@@H]2Oc3c(NC(=O)c4ccc(-c5nccs5)cc4)cccc3C(=O)N([C@@H](C)CO)C[C@@H]2C)cc1,1.6,nt
COc1ccc(S(=O)(=O)N(C)C[C@@H]2Oc3c(NC(=O)Nc4ccccc4)cccc3C(=O)N([C@@H](C)CO)C[C@@H]2C)cc1,0.8,nt
COc1ccc(CCN2C(=O)CC(Sc3ccccc3C(=O)O)C2=O)cc1OC (centres undefined),-4.4,0.0
C=CCn1c(=O)c2ccc(C(=O)NCc3ccccc3)cc2n(Cc2ccccc2C#N)c1=O,4.0,nt
C[C@H]1CN([C@@H](C)CO)C(=O)c2cc(NC(=O)NC3CCCCC3)ccc2O[C@H]1CN(C)Cc1ccccc1,-1.6,0.8
Cc1ccccc1/C=N/n1c(C)cc(C)c(C#N)c1=O,-2.0,1.1
COc1ccc(S(=O)(=O)N(C)C[C@H]2Oc3ccc(NC(=O)CCCCCC(=O)Nc4ccccc4N)cc3C(=O)N([C@@H](C)CO)C[C@H]2C)cc1,-7.7,nt
C[C@H](CO)N1C[C@H](C)[C@H](CN(C)C(=O)Nc2ccc3c(c2)OCO3)Oc2ccc(NS(C)(=O)=O)cc2C1=O,-2.9,0.0
C[C@H]1CN([C@@H](C)CO)C(=O)c2cccc(NS(=O)(=O)c3cccs3)c2O[C@@H]1CN(C)Cc1ccc(C(F)(F)F)cc1,3.6,nt
CCN1CCN(CCNC(=O)Nc2ccc(Cl)cc2)CC1,1.9,nt
NCCNS(=O)(=O)c1cccc2c(Cl)cccc12,-2.1,0.5
CC1CCN(S(=O)(=O)c2ccc(NC(=O)c3ccc(C(C)(C)C)cc3)cc2)CC1,6.8,0.0

# The list goes on; the last 2 above are carried over.
SMILES,BJeLR viab HTS,A1 inh
NCCNS(=O)(=O)c1cccc2c(Cl)cccc12,-2.1,0.5
CC1CCN(S(=O)(=O)c2ccc(NC(=O)c3ccc(C(C)(C)C)cc3)cc2)CC1,6.8,0.0
CCOC(=O)c1c(CN2CCOCC2)n(C)c2ccc(O)cc12,3.4,1.0
COc1ccc(C2C(C(=O)O)c3ccccc3C(=O)N2Cc2ccc(Cl)cc2)cc1 (centres undefined),-4.8,1.0
O=C1Cc2ccc(F)cc2CC1C1=Cc2ccc(F)cc2CC1 (centres undefined),-2.7,0.4
COc1ccc(-n2ccc3ccccc32)cc1,2.7,-0.2
Cc1nc(C)c(Oc2ccc(Cl)cc2Cl)c(N2CCCCC2)n1,-0.9,-0.9
CC(=O)O[C@@H]1[C@@H](O)[C@H](C)O[C@@H](O[C@H]2[C@@H]3C=CO[C@@H](O[C@@H]4O[C@H](CO)[C@@H](O)[C@H](O)[C@H]4O)[C@@H]3[C@@]3(CO)O[C@@H]23)[C@@H]1OC(=O)/C=C/c1ccccc1,3.3,0.2
COc1cc(/C=C/CO)ccc1OC/C=C(\C)CCC=C(C)C,-2.8,0.2
Cc1cc(C)c2c(c1)/C(=c1/sc3n(c1=O)CN(c1cccc(Br)c1)CN=3)C(=O)N2,-1.3,0.1
Cc1noc(C)c1S(=O)(=O)Nc1cccc2c1O[C@H](CN(C)C(=O)NC1CCCCC1)[C@H](C)CN([C@@H](C)CO)C2=O,-4.9,nt
Cc1nc(=O)c(-c2ccccc2)c(C)n1-c1ccc(C(=O)O)cc1,-2.5,0.0
C[C@H]1CN([C@@H](C)CO)C(=O)c2cccc(NC(=O)c3nc4ccccc4s3)c2O[C@@H]1CN(C)Cc1ccc2c(c1)OCO2,-1.5,nt
COc1ccc(NC(=O)Nc2cccc3c2O[C@H](CN(C)S(=O)(=O)c2cn(C)cn2)[C@H](C)CN([C@@H](C)CO)C3=O)cc1,-12,nt
O=C(NC1=C(C(=O)c2ccccc2)N(Cc2ccccc2)S(=O)(=O)c2ccccc21)c1ccccc1,-3.1,nt
O=C1c2ccccc2C(=O)N1CC(=O)N1c2ccccc2Sc2ccccc21,-6.7,0.7
CC(C)(C)c1nnc(-c2cccc(NS(=O)(=O)c3ccc(-c4ccon4)s3)c2)o1,5.9,-1.0
COC(=O)Cn1cnc2c(nnn2Cc2ccc(Cl)cc2)c1=O,1.7,0.9
C[C@H]1CN([C@@H](C)CO)C(=O)c2cccc(NC(=O)c3nc4ccccc4s3)c2O[C@@H]1CN(C)CC1CC1,3.0,nt
CCC(C)C(=O)N1CCN(c2cccc(Cl)c2)CC1 (centres undefined),4.7,0.5
Cc1cc(C(=O)Nc2cccc3c2O[C@H](CN(C)S(=O)(=O)c2cn(C)cn2)[C@H](C)CN([C@H](C)CO)C3=O)n(C)n1,-1.3,nt
O=C1NC(Cc2c[nH]c3ccccc23)C(=O)N2CCCC12 (centres undefined),-1.0,0.1
C[C@@H]1CN([C@H](C)CO)C(=O)c2cc(NC(=O)C3CCCCC3)ccc2O[C@H]1CN(C)C(=O)Nc1ccc(C(F)(F)F)cc1,0.8,0.7
FC(F)(F)c1ccc(C2=NCCc3sccc32)cc1,-6.3,-0.9
Cc1ccc(CS(=O)(=O)Cc2ccc(C(=O)N3CCc4ccccc4C3)o2)cc1,-3.7,0.3
COc1ccc(CCNC(=O)Cn2ccc3ccccc3c2=O)cc1OC,-5.7,nt
CCc1ccc(NC(=O)N(Cc2c[nH]c3ccccc23)C(C)C)cc1,-0.1,nt
O=C1C2C3C=CC(C3)C2C(=O)N1Cc1ccccc1Cl (centres undefined),-4.9,-0.4
COc1ccc(NC(=O)Nc2ccc3c(c2)C(=O)N([C@H](C)CO)C[C@H](C)[C@@H](CN(C)Cc2ccncc2)O3)cc1,1.7,0.7
CC12CCC(c3nnc(SCC(=O)Nc4cccc(C(F)(F)F)c4)nc31)C2(C)C (centres undefined),-0.9,-1.1
COc1ccc(CN(C)C[C@@H]2Oc3ccc(NC(=O)CCN4CCOCC4)cc3C(=O)N([C@H](C)CO)C[C@H]2C)cc1,-6.1,1.0
C[C@@H]1CN([C@H](C)CO)C(=O)c2cc(NC(=O)CCCN(C)C)ccc2O[C@@H]1CN(C)C(=O)Nc1cccc2ccccc12,-3.6,0.7

# Ordered by molar mass (rising): three of the compounds above
SMILES,BJeLR viab HTS,A1 inh
COC(=O)Cn1cnc2c(nnn2Cc2ccc(Cl)cc2)c1=O,1.7,0.9
C[C@@H]1CN([C@H](C)CO)C(=O)c2cc(NC(=O)Cc3ccccc3)ccc2O[C@@H]1CN(C)C(=O)Nc1ccccc1,-5.7,0.2
COc1ccc(S(=O)(=O)N(C)C[C@@H]2Oc3c(NC(=O)Nc4ccccc4)cccc3C(=O)N([C@@H](C)CO)C[C@@H]2C)cc1,0.8,nt

# Next structures follow:
SMILES,BJeLR viab HTS,A1 inh
O/N=C/c1ccnc(SCc2ccc(Cl)cc2)n1,-1.7,-4.3
Cc1cc(Oc2nc3cc(Cl)ccc3s2)c2cc(Cl)ccc2n1,-3.8,0.5
CCOC(=O)NC(=S)Nc1ccc(F)cc1,0.1,-1.0
CCOC(=O)CSc1nnc(CNC(=O)c2cccs2)n1-c1ccccc1,0.8,nt
C[C@H]1CN([C@@H](C)CO)C(=O)c2cccc(NS(=O)(=O)c3cn(C)cn3)c2O[C@H]1CN(C)Cc1ccc(Cl)c(Cl)c1,-2.5,nt
CCOC(=O)Oc1c(OC)cc(C(=O)O[C@@H]2C[C@@H]3CN4CCc5c([nH]c6cc(OC)ccc56)[C@H]4C[C@@H]3[C@H](C(=O)OC)[C@H]2OC)cc1OC,-5.5,-0.9
C[C@@H]1CN([C@H](C)CO)C(=O)c2cccc(N(C)C)c2O[C@@H]1CN(C)C(=O)Nc1ccc(C(F)(F)F)cc1,3.4,nt
CN1CCN(C(=S)SCC(=O)Nc2nc(=O)c3ccccc3s2)CC1,5.9,nt
Cc1cc(-c2onc(C)c2C(N)=O)no1,-10,0.5
CC(C)=CCC/C(C)=C/CCC1(C)Oc2c(c(O)cc3c2CN(C(CCC(=O)O)C(=O)O)C3=O)CC1O (centres undefined),13,-0.7
CSC1=NN(C)c2cnn(C)c(=O)c2S1,0.8,0.1
CCCC(=O)CC(c1ccccc1)C1C(=O)c2ccccc2C1=O (centres undefined),-3.9,-0.3
C[C@@H]1CN([C@H](C)CO)C(=O)c2cc(NC(=O)CCCN(C)C)ccc2O[C@@H]1CN(C)C(=O)Nc1ccccc1,1.0,-0.5
CCC1(C)Cc2nc3nc(SCC(=O)c4ccccc4)n(Cc4ccccc4)c(=O)c3cc2CO1 (centres undefined),0.8,0.0
Cc1noc(C)c1NC(=O)Nc1cccc2c1O[C@@H](CN(C)C(=O)Nc1ccc(C(F)(F)F)cc1)[C@H](C)CN([C@H](C)CO)C2=O,3.0,nt
CCC(C(=O)N1CCN(c2cc(C)ccc2C)CC1)n1sc2ccccc2c1=O (centres undefined),-1.0,-0.4
CCCn1c(=O)cc(N)n(-c2ccc(Cl)cc2)c1=O,-2.9,0.1
Cc1noc(C)c1NC(=O)Nc1cccc2c1O[C@@H](CN(C)Cc1ccc(-c3ccccc3)cc1)[C@H](C)CN([C@@H](C)CO)C2=O,-1.4,nt
C[C@@H]1CN([C@H](C)CO)C(=O)c2cccc(NC(=O)C3CCOCC3)c2O[C@H]1CN(C)C(=O)Nc1ccc(F)cc1,-0.9,nt
Cc1noc(C)c1S(=O)(=O)Nc1cccc2c1O[C@@H](CN(C)S(=O)(=O)c1ccc(F)cc1)[C@@H](C)CN([C@@H](C)CO)C2=O,2.1,nt
C[C@H](CO)N1C[C@H](C)[C@@H](CN(C)C(=O)Nc2ccccc2)Oc2ccc(NS(C)(=O)=O)cc2C1=O,4.1,-1.0
C[C@@H]1CN([C@@H](C)CO)C(=O)c2cc(NS(C)(=O)=O)ccc2O[C@@H]1CN(C)C(=O)Nc1ccc(C(F)(F)F)cc1,-0.4,0.6
CN(C)C(=O)c1cc(Cl)ccc1Cl,-0.8,0.3
CCCC(O)/C(=C/C1=C(C(=O)CC(CC(=O)O)OC(N)=O)C(=O)c2cccc(O)c2C1=O)CC(C(=O)O)[N+](C)(C)C (centres undefined),13,0.7
FC(F)(F)c1nc(SCc2ccc(Cl)cc2)n[nH]1,0.8,-0.6
C[C@@H]1CN([C@H](C)CO)C(=O)c2cc(NC(=O)C3CCCCC3)ccc2O[C@H]1CN(C)Cc1ccccc1,-0.5,-0.7
Cc1[nH]nc2c1C1=C(C(=O)CCC1)C(c1ccc(N(C)C)cc1)N2 (centres undefined),-2.7,1.4
COc1cc(OCc2ccccc2)ccc1CN1CCC(C(=O)c2ccc(F)cc2)CC1,9.0,-1.2
CCCOC(=O)Nc1ccc(Cl)cc1C(=O)c1ccccc1,3.4,0.1
CC(=O)n1nc(-c2cccnc2)nc1N,-5.1,nt

# Single records, from the list above.
# Profile of CC(=O)n1nc(-c2cccnc2)nc1N : BJeLR viab HTS: -5.1; A1 inh: nt
# Profile of COc1cc(OCc2ccccc2)ccc1CN1CCC(C(=O)c2ccc(F)cc2)CC1 : BJeLR viab HTS: 9.0; A1 inh: -1.2

# (next part)
SMILES,BJeLR viab HTS,A1 inh
Cc1ccc(S(=O)(=O)N(C)C[C@H]2Oc3ccc(NC(=O)C4CCCCC4)cc3C(=O)N([C@H](C)CO)C[C@@H]2C)cc1,-6.6,0.0
CN(C)CCNc1nc(-c2noc(NCCN(C)C)n2)no1,-2.4,0.0
C[C@H](CO)N1C[C@H](C)[C@@H](CN(C)S(=O)(=O)c2cn(C)cn2)Oc2c(NS(=O)(=O)c3cccs3)cccc2C1=O,1.8,nt
C[C@@H]1CN([C@H](C)CO)C(=O)c2cc(NC(=O)Nc3ccc4c(c3)OCO4)ccc2O[C@@H]1CN(C)Cc1ccc(C(F)(F)F)cc1,1.9,-0.6
COc1ccc2cc3cc(C(=O)NCCN4CCN(c5ccccc5F)CC4)sc3nc2c1,1.9,nt
CC(C)(C)n1ncc2c(=O)n(CC(=O)OCc3ccccc3)cnc21,-5.2,-4.2
CCOC(=O)c1cc2c(c(CSc3ccc(Cl)cc3)c1)OCOC2,2.0,-0.5
C[C@@H]1CN([C@H](C)CO)C(=O)c2cccc(NS(=O)(=O)c3ccc(F)cc3)c2O[C@H]1CN(C)S(=O)(=O)c1cn(C)cn1,0.7,nt
O=S(=O)(Cc1ccccc1)N1CCn2c(nc3ccccc32)C1,-4.6,nt
O=C(Nc1nc2ccccc2s1)C1CC1,2.1,-7.1
C[C@@H]1CN([C@@H](C)CO)C(=O)c2cccc(NS(=O)(=O)c3cn(C)cn3)c2O[C@@H]1CN(C)S(=O)(=O)c1ccccc1,2.8,nt
CC(C)N(C(=O)NC(=O)c1ccc(F)cc1F)C(C)C,1.0,0.1
C[C@@H]1CN([C@H](C)CO)C(=O)c2cc(NC(=O)Nc3ccc(C(F)(F)F)cc3)ccc2O[C@@H]1CN(C)Cc1ccc(C(=O)O)cc1,-0.9,0.8
COc1ccc(N2C(=O)c3c(c4ccccc4n3C)C2c2cccc(OC)c2)cc1 (centres undefined),-2.2,0.5
COc1cc2c(NC(C)=O)c(CN(C)C)oc2c(Cl)c1Cl,-4.0,1.0
C[C@H](CO)N1C[C@H](C)[C@@H](CN(C)Cc2ccncc2)Oc2c(cccc2N(C)C)C1=O,2.2,nt
C[C@@H]1CN([C@H](C)CO)C(=O)c2cccc(NC(=O)c3ccncc3)c2O[C@@H]1CN(C)C(=O)Nc1ccccc1,0.6,nt
CCCC(C)C(=O)Nc1cccc(Br)c1 (centres undefined),6.2,0.1
